High-throughput results as filed in PubChem.
B2AR ag – human beta-2 adrenergic receptor agonism by FAP. P07550. Am2.2-beta2AR cells, FAP receptor internalization, flow cytometry; reference of the scale not given here. 340,000 compounds, 0.43% hits. response, % (concentration not given with the values);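 active = response above a set limit, near 3 SD of response in nonfluorescent compounds, cut at about 42% in these data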;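 also: stock transfer was 100 nL into about 11 µL; a reference agonist was the positive control; negative values mostly stem from fluorescent compounds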
Target sequence (P07550 whole entry, looked up): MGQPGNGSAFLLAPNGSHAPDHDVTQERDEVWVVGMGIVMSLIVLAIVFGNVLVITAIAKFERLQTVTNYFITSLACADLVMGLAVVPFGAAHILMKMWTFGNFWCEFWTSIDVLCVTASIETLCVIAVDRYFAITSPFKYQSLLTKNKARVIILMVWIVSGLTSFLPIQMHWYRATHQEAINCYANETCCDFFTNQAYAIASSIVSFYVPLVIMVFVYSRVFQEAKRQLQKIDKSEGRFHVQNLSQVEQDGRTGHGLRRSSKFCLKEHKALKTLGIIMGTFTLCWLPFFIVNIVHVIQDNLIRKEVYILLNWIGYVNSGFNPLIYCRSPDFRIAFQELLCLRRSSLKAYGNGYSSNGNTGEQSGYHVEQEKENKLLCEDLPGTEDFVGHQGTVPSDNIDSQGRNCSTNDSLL
Calb FLC – C. albicans growth modulation with fluconazole; 300,000 compounds, 0.57% hits; C. albicans CaCi-2 (fluconazole-resistant clinical isolate) + fluconazole, Alamar Blue growth, 48 h; growth inhibition, % (concentration not given with the values);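 active = most replicates above 75%; inconclusive = exactly half above 75%; inactive = most below 75%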;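 also: all wells also contain fluconazole at 8 µg/ml as a sub-toxic cotreatment; 0% = median of DMSO wells and 100% = median of geldanamycin control wells; wells of about 8 µL received 7.5 nL stock; the first replicate is given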
LANA-H2A inh – blocks KSHV LANA binding to histone H2A/H2B. cell-free LANA-H2A/H2B peptide, fluorescence polarization. inhibition, % (no concentration beside the values). 320,000 compounds, 0.6% hits. AID 2629; in the data active = inhibition mostly above about 10%, no sharp cut-off; inactive = mostly below about 6.7%;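 also: stock transfer was 7.5 nL into about 10 µL; 0% = median of vehicle wells and 100% = median of positive control wells; one replicate is shown; the record names a cut of 25% in any replicate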
ALR H2O2 inh – human ALR oxidase inhibition via reduced H2O2. P55789. purified ALR, DTT oxidation, H2O2 HRP-luminol luminescence. inhibition, % (concentration not given with the values). 290,000 compounds, 3.8% hits. AID 485317;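 active = mean and each replicate at 75% or more; inconclusive = only one of the two met; inactive = neither met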;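 also: stock transfer was 7.5 nL into about 7.5 µL; 0% = neutral wells and 100% = wells with inactivated enzyme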
Target sequence (P55789 whole entry, looked up): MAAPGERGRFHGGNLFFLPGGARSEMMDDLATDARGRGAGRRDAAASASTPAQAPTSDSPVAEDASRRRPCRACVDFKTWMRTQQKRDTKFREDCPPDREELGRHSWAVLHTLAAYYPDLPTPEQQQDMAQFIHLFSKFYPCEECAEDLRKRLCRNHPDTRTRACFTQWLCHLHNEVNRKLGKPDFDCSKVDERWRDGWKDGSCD
Vif TR-FRET – inhibitors of Vif binding to APOBEC3G peptide, primary screen, biochemical, TR-FRET, GST-Vif 1-94, biotin-A3G peptide, dose response retest (AID 1117319); TR-FRET GST-Vif / biotin-A3G peptide binding; higher % means a stronger effect; test concentration not given here; strong numbers were not always called active; inhibition, %; hits with a dose series show IC50 in µM; 260,000 compounds, 0.57% hits;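 active = above the screen mean plus three standard deviations and confirmed in dose response; inconclusive = results disagree or hit not tested in dose response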;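 also: Vif residues 1-94 fused to GST binding biotinylated APOBEC3G peptide 110-148; 0% = full assay without inhibitor and 100% = GST in place of GST-Vif; retest series ran down from 100 µM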
HNF4A DNA FP – change in binding of human HNF4 alpha to DNA; HNF4a-FITC DNA binding, fluorescence polarization, 1 h; activity change, % at 10 µM; 360,000 compounds, 0.3% hits; AID 1224865; in the data active = activity change above about 30%, passing the limit was not always enough;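 also: controls were the assay level and a saturating level of protein; the project sought stronger binding though the title names inhibitors; some compounds called inactive have numbers as strong as hits; positive values seem to mean higher polarization but the record does not say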
Target sequence (P41235 whole entry, looked up): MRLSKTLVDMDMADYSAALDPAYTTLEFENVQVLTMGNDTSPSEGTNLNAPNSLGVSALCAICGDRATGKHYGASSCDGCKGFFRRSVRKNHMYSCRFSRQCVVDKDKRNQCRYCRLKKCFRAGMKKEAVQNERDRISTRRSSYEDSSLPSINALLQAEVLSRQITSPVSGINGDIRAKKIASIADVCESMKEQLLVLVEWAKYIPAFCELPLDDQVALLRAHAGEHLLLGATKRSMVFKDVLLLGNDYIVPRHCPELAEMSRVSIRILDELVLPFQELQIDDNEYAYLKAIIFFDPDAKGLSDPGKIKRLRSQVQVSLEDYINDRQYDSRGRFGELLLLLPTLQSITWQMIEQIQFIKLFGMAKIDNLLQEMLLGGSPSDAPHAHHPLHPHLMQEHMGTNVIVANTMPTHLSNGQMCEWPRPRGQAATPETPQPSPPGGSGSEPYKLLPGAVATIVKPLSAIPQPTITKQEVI
RanGTP-Imp inh – disruptors of Ran-importin-beta complex formation – biochemical, FRET, CFP-Ran, YFP-importin-beta, homogeneous, primary screen; cell-free CFP-Ran/YFP-importin-beta FRET ratio; inhibition, % (test concentration not listed); 300,000 compounds, 1.1% hits; AID 2216;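 active = most replicates above 15%; inconclusive = exactly half above 15%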;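 also: 0% = DMSO wells and 100% = Ran loaded with GDP instead of GTP; wells of about 40 µL received 100 nL stock; the first replicate is given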
Numbers without * were called inactive; u = inconclusive; x = no result given; & = joins results of further samples. Outcome played no part in choosing rows; any-hit rate near 6.3%.

SMILES	B2AR ag	Calb FLC	LANA-H2A inh	ALR H2O2 inh	Vif TR-FRET	HNF4A DNA FP	RanGTP-Imp inh
COc1ccc(Cl)cc1NS(=O)(=O)c1cccc(C(=O)N2CC(C)OC(C)C2)c1 (stereo not given)	1	x	-5.4	-4	-7%	-0.9	x
O=C(c1ccccc1)c1cnc2ccc(Cl)cc2c1N1CCOCC1	-14	0	-0.1	32	-9%	-0.4	0.1
CNC(=O)NC(=O)CN1C(=O)NC2(CCOc3ccccc32)C1=O (stereo not given)	0	-1	7.6	x	x	3.8	-1.1
COc1cc(OC)cc(-c2c(-c3ccc(C(C)=O)cc3)c3cc(-c4cccc5[nH]ccc45)ccc3n2C)c1	3	x	-8.2	4	x	11	x
CSc1nc2c([nH]1)c(=S)n(C)c(=O)n2C	-4	x	x	x	-11%	-0.1	x
NC(=O)C1(N2CCCCC2)CCN(C(=S)NC2CCCC2)CC1	-3	-9	-11	38	2%	0.5	0.4
Cc1cc(C)cc(NC(=O)CCn2cnc3cc(C)c(C)cc32)c1	-3	17	-1.6	0	u	4.1	1.5
CN(C)CCCN(CCCNC(=O)/C=N/O)Cc1ccccc1	-5	-6	-2.4	6	x	2.3	-1.6
CCn1ncc(Br)c1C(=O)Nc1ccc(OC(F)(F)F)cc1	-7	-6	6.5	1	x	1.5	0.1
COCC1OS(=O)(=O)NC(CC(=O)SC(C)(C)C)C1C (stereo not given)	6	-4	-2.9	3	x	1.4	-2.2
CC(=O)N1CCc2cc(S(=O)(=O)CCC(=O)NCc3ccco3)ccc21	-14	0	2.4	-2	19%	-0.6	-1.9
C=CCC[C@@H](Cc1ccc(F)cc1)C(=O)O[C@H](CNC(=O)[C@H](CC=C)CC(=O)N(CCO)Cc1ccccc1)c1ccccc1	23	x	-1.1	0	x	0.1	x
CCOC(=O)c1c(-c2ccccc2)csc1/N=C/C1C(=O)CCCC1=O	-2	7	6.9	18	u	2.8	1.6
CN(C)C(=O)c1cccn1-c1ncc(C(F)(F)F)cc1Cl	0	-6	5.6	1	5%	3.5	-1.2
CCOC(=O)C1CCCN(C(=O)c2cc(-c3ccco3)nc3ccccc23)C1 (stereo not given)	-8	x	x	x	2.6µM*	-51	x
COc1ccc(NC(=O)CN(C)C(=O)/C=C/c2ccc(OCc3ccccc3)cc2)cc1	-10	-7	-0.4	x	x	3.4	-0.3
O=C(CO/N=C/c1ccc(OC(F)F)cc1)NC1CCCCC1	-1	-18	-1.3	-7	8%	3.7	3.2
CN(C)C(CNC(=O)c1cnc(Cl)c(Cl)c1)c1ccccc1 (stereo not given)	2	x	-0.5	23	3%	0.6	2.4
O=C(Cn1nc(-c2ccccc2)oc1=O)OCC(=O)c1ccccc1	3	x	-3.3	-14	-12%	-1.2	x
COc1ccc(CNC(=O)CCC(=O)c2ccc(F)cc2)cc1OC	-3	x	2.2	1	0%	1.4	x
COc1cc(N)c(Cl)cc1C(=O)OCC(=O)N1CCCC1	-9	-5	2.9	1	x	-2.2	-2.5
Cc1cc(C)c2nc(N3CCN(C(=O)c4cccs4)CC3)sc2c1	2	4	x	x	3%	-0.6	-3.1
COc1ccc(NC(=O)N(C)C[C@H]2Oc3ccc(NC(=O)Cc4ccccc4)cc3CC(=O)N([C@H](C)CO)C[C@H]2C)cc1	-6	x	-0.1	-3	x	-1.1	x
CCN(CC)C1CCN(C(=O)c2cc(COc3cccc4cccnc34)on2)C1 (stereo not given)	-3	5	x	x	x	2.7	-7.2
COC(=O)C1=C(C)NC(=O)NC1/C=C/c1ccccc1 (stereo not given)	-5	1	1.4	x	17%	2.4	5.8

Among those listed so far, these contain four or more nitrogen atoms:
SMILES	B2AR ag	Calb FLC	LANA-H2A inh	ALR H2O2 inh	Vif TR-FRET	HNF4A DNA FP	RanGTP-Imp inh
CNC(=O)NC(=O)CN1C(=O)NC2(CCOc3ccccc32)C1=O (stereo not given)	0	-1	7.6	x	x	3.8	-1.1
CSc1nc2c([nH]1)c(=S)n(C)c(=O)n2C	-4	x	x	x	-11%	-0.1	x
NC(=O)C1(N2CCCCC2)CCN(C(=S)NC2CCCC2)CC1	-3	-9	-11	38	2%	0.5	0.4
CN(C)CCCN(CCCNC(=O)/C=N/O)Cc1ccccc1	-5	-6	-2.4	6	x	2.3	-1.6
COc1ccc(NC(=O)N(C)C[C@H]2Oc3ccc(NC(=O)Cc4ccccc4)cc3CC(=O)N([C@H](C)CO)C[C@H]2C)cc1	-6	x	-0.1	-3	x	-1.1	x
CCN(CC)C1CCN(C(=O)c2cc(COc3cccc4cccnc34)on2)C1 (stereo not given)	-3	5	x	x	x	2.7	-7.2

Three neighbouring entries out of the list so far, for reference:
SMILES	B2AR ag	Calb FLC	LANA-H2A inh	ALR H2O2 inh	Vif TR-FRET	HNF4A DNA FP	RanGTP-Imp inh
COc1ccc(Cl)cc1NS(=O)(=O)c1cccc(C(=O)N2CC(C)OC(C)C2)c1 (stereo not given)	1	x	-5.4	-4	-7%	-0.9	x
O=C(c1ccccc1)c1cnc2ccc(Cl)cc2c1N1CCOCC1	-14	0	-0.1	32	-9%	-0.4	0.1
CNC(=O)NC(=O)CN1C(=O)NC2(CCOc3ccccc32)C1=O (stereo not given)	0	-1	7.6	x	x	3.8	-1.1

Next structures follow.
SMILES	B2AR ag	Calb FLC	LANA-H2A inh	ALR H2O2 inh	Vif TR-FRET	HNF4A DNA FP	RanGTP-Imp inh
Cc1nn(C)c(C)c1/C=C/C(=O)c1ccc(Cl)cc1Cl	3	92*	1.4	14	9%	3.3	2.2
CC(C)(C)n1ncc2c(=O)n(CC(=O)Nc3ccc(Cl)cc3)cnc21	-3	-3	-2.1	-5	13%	1.2	-1.3
c1ccc(N2CCN(CC3CCCCC3)CC2)cc1	-5	-4	5.4	21	-4%	2.2	-1.7
COc1ccccc1Nc1ccc(Nc2ccccc2OC)nn1	18	-4	-2.3	u	x	-4.3	2.4
O=C(CSc1nnc(Nc2ccccc2F)s1)NC1CCS(=O)(=O)C1 (stereo not given)	2	x	2.3	-1	x	-2.0	x
CN(C(=O)c1cccc(Br)c1)C1CCS(=O)(=O)C1 (stereo not given)	-6	2	-4.0	4	-4%	-3.7	0.3
Cc1cc(NC(=O)CCN2CCN(CCO)CC2)ccc1Br	4	27	-2.4	-7	x	-0.8	5.1
CCCN1CCC(=O)N([C@H](CSc2ccc(Br)cc2)c2ccccc2)CC1	-10	-12	-0.9	x	x	-1.7	-2.8
CC1CCCCN1C(=O)COC(=O)CNC(=O)c1sc2ccccc2c1Cl (stereo not given)	-8	x	-0.6	-4	-8%	0.3	-0.3
O=C(O)Cc1sc(=O)[nH]c1O	-7	x	x	x	-3%	0.8	x
COc1cc(-c2nnc(SCC(=O)N(Cc3ccccc3)C(C)(C)C)o2)cc(OC)c1OC	19	8	-0.7	7	-3%&1%	3.0	-0.6
CCC(C)c1ccc(NC(=O)CN(C)CC(=O)Nc2cccc(OC)c2)cc1 (stereo not given)	-3	-24	2.2	-5	-4%	3.1	4.5
O=c1c2ccccc2nc2n1C(CSc1ccc(F)cc1)CN2 (stereo not given)	0	0	3.5	x	0%	0.8	3.7
Cn1nc(CC(=O)Nc2ccc3c(c2)CCC3)c2ccccc2c1=O	4	-4	x	x	27%	-0.4	-0.8
COc1cc(/C=N/NC(=O)Cn2cnc3ccccc3c2=O)ccc1O	-5	-2	-0.4	84*	1%	-1.9	3.0
CNC(=S)N1CCN(c2nc(-c3ccc(F)cc3)cs2)CC1	14	18	1.6	14	x	4.4	2.0
CC(=O)N1CCN(C(=O)c2ccc(Cl)c(S(=O)(=O)N3CCCC3)c2)CC1	29	x	1.6	-13	-5%	-4.9	x
CN(c1ccccc1)S(=O)(=O)c1cccc(NC(=O)c2ccc(Cl)c([N+](=O)[O-])c2)c1	19	x	2.4	4	x	0.9	x
Cc1ccnc(SCCn2c(N3CCOCC3)nc3c2c(=O)[nH]c(=O)n3C)n1	-2	7	-5.1	x	x	2.7	x
O=C1/C(=C/c2ccccc2)SC(=S)N1N1C(=O)C2CC2C1=O (stereo not given)	1	21	-4.3	-15	-1%	3.2	0.1
COC(=O)C1CN(C(=O)C(C)Oc2cccc(C)c2C)c2ccccc2O1 (stereo not given)	9	-3	-0.3	-5	5%	-1.0	-14
CC1(C)Cc2c(sc3ncn4nc(CCC(=O)O)c(=O)nc4c23)CO1	1	-6	3.5	-14	13%	1.7	0.4
COc1ccc(-n2c(SCC(=O)NC3CCCCC3)nc3ccsc3c2=O)cc1	-8	33	2.4	-18	-8%	-1.8	-0.7
Cc1ccc(C(=O)C2=C(O)C(=O)N(Cc3cccnc3)C2c2cccc(Oc3ccccc3)c2)o1 (stereo not given)	x	61	-0.6	x	x	x	0.1
O=C(COC(=O)CSc1ccc2ccccc2c1)NC1CCCC1	-7	-8	3.3	100*	x	-1.2	-1.5

5 compounds from above, reduced to Vif TR-FRET, B2AR ag and ALR H2O2 inh:
molecule	Vif TR-FRET	B2AR ag	ALR H2O2 inh
COC(=O)C1CN(C(=O)C(C)Oc2cccc(C)c2C)c2ccccc2O1 (stereo not given)	5%	9	-5
O=C(O)Cc1sc(=O)[nH]c1O	-3%	-7	x
CCC(C)c1ccc(NC(=O)CN(C)CC(=O)Nc2cccc(OC)c2)cc1 (stereo not given)	-4%	-3	-5
Cc1ccnc(SCCn2c(N3CCOCC3)nc3c2c(=O)[nH]c(=O)n3C)n1	x	-2	x
CCCN1CCC(=O)N([C@H](CSc2ccc(Br)cc2)c2ccccc2)CC1	x	-10	x

Continuation.
SMILES	B2AR ag	Calb FLC	LANA-H2A inh	ALR H2O2 inh	Vif TR-FRET	HNF4A DNA FP	RanGTP-Imp inh
C[C@H](NC(=O)c1nc[nH]c1C(=O)N1CCN(c2ccccc2)CC1)c1ccccc1	-8	x	-4.5	22	x	-2.7	x
CCN1CCN(C(=S)NC(=O)c2cc(OC)c(OC)c(OC)c2)CC1	-3	x	-2.0	-10	x	2.2	x
O=C(NCCN1CCCC1)C1COc2ccccc2O1 (stereo not given)	3	-6	1.5	-7	21%	1.3	-1.6
N#CNC(=Nc1ccccc1)SCc1ccc(C(=O)O)cc1	0	8	-1.4	-3	u	-1.6	u
Cc1nc(-c2ccc(NC(=O)c3ccccc3C)cc2)cs1	3	12	-6.9	-4	14%	-1.5	3.4
Nc1ccc(Oc2ccc3c(c2)OCO3)cc1	3	0	-0.2	99*	-2%	-1.8	-0.5
CCOC(=O)c1sc(NC(=O)CSc2n[nH]c(C)n2)nc1C	11	-7	1.8	-6	7%	1.7	-0.9
COC(=O)CSc1nnc(NC(=O)CCc2ccccc2)s1	31	-12	-3.3	x	x	-0.7	-0.2
CN(C(=O)/C=C/c1ccccc1)C1CCS(=O)(=O)C1 (stereo not given)	15	-5	-0.5	-4	x	0.8	0.5
COC(CNC(=O)CCc1c(C)nc2c(-c3ccccc3)c(C)nn2c1C)OC	-3	-3	-3.4	x	-12%	-1.3	-1.4
Cc1ccc(N(C)C(=O)CC(C)S(=O)(=O)c2ccc3c(c2)NC(=O)CO3)cc1 (stereo not given)	1	-9	2.4	-4	x	-0.8	1.7
COc1ccc(C2=C(c3ccc(OC)c(OC)c3)CN3CCCCC3C2)cc1 (stereo not given)	-5	x	-455	-2	0%	5.2	x
COc1ccc(OCCCCN2CCC(C)CC2)cc1	1	-13	-3.1	-22	0%	2.8	u
O=C(Nc1cc(S(=O)(=O)N2CCCCCC2)ccc1OCC(F)(F)F)C1CCC1	-3	-10	2.4	-2	x	1.8	0.7
